Screening results deposited in PubChem BioAssay by National Center for Advancing Translational Sciences (NCATS).
SARS PLP yeast = SARS-CoV PLP inhibition in yeast; S. cerevisiae expressing SARS-CoV PLpro, growth rescue; control for the full effect not named in the record; Potency, µM (titrated, usually from 32.9 µM), for inactives: at the top dose activity, positive = growth rescue; 330,000 compounds, 0.19% hits; AID 485353; active means well fitted rising curve with a large enough effect; inconclusive means small, poorly fitted or top-dose-only effect; inactive means no such curve, though single readings can be large or run the other way; further: 0% is about no effect; nearly all actives have a fitted effect of over 55% in size; growth read by luminescence after 48 h
Lassa entry inh = blocks Lassa virus binding to or entry into cells; 300,000 compounds, 1.2% hits; AID 540256; Lassa virus pseudotype entry inhibition, cell reporter; control for the full effect not named in the record; Potency, µM (titrated, usually from 37.9 µM), without a hit: at the highest dose activity change, negative = inhibition, most hits filed as inhibitors; active means well fitted inhibition curve with a large enough effect; inconclusive means small, poorly fitted or top-dose-only effect, or effect the other way; inactive means flat fitted curve, though single readings scatter; tested in HEK293 cells; further: on the % scale 0 is the no-effect control and ±100 the full control effect; nearly all actives have a fitted effect of over 50% in size; luciferase read-out
2A StopGo = FMDV 2A StopGo reporter, luciferase signal. human cells with a luciferase reporter of 2A StopGo recoding; control for the full effect not named in the record. Potency, µM (doses to about 57.9 µM), inactives show at the top dose signal change, negative = less light. 410,000 compounds, 1.2% hits; active = well fitted falling curve with a large enough effect; inconclusive = small, poorly fitted or top-dose-only effect; inactive = no such curve, though single readings can be large or run the other way; tested in HEK293T cells; further: on the % scale 0 is the no-effect control and ±100 the full control effect; nearly all actives have a fitted effect of over 45% in size; luciferase light after 4 h
RE007 growth inh = less growth of the S. pombe RE007 Vpr strain. 360,000 compounds, 0.21% hits. Potency, µM (doses to about 92.2 µM), inactives show at the highest dose activity change, negative = less growth. S. pombe RE007 Vpr strain, BacTiter-Glo ATP luminescence, 24 h; control for the full effect not named in the record; active = well fitted falling curve with a large enough effect; inconclusive = small, poorly fitted or top-dose-only effect; inactive = no such curve, though single readings can be large or run the other way;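 further: on the % scale 0 is the no-effect control and ±100 the full control effect; nearly all actives have a fitted effect of over 50% in size; the assay follows cell death caused by Vpr and the record does not say whether a fall means rescue or toxicity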
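Fission yeast strain RE007, carrying one chromosomally integrated HIV-1 vpr copy, was seeded at OD 0.01 in PMG+AL medium with 23 nL pinned compound. After 24 h at 30 °C and 99% humidity, viability was read by BacTiter-Glo luminescence.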
MARV entry inh = blocks Marburg virus binding to or entry into cells; Marburg virus pseudotyped entry inhibition, cell reporter; control for the full effect not named in the record; about a third of the inactives were read at about 46 µM; Potency, µM (highest dose often 37.8 µM), inactives show top-dose activity change, negative = inhibition, usual class: inhibitors; 300,000 compounds, 1.8% hits; AID 540276; active = well fitted inhibition curve with a large enough effect; inconclusive = small, poorly fitted or top-dose-only effect, or effect the other way; inactive = flat fitted curve, though single readings scatter; tested in HEK293 cells; about a fifth of its hits are not listed in these tables; further: on the % scale 0 is the no-effect control and ±100 the full control effect; luciferase read-out
Cruzain noTriton = inhibitors of Trypanosoma cruzi cruzain without detergent; 200,000 compounds, 2.3% hits; purified cruzain, Z-FR-AMC fluorescence, no detergent; P25779; Potency, µM, without a hit: max response, negative = inhibition, hits mostly inhibitors;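 further: plate controls were enzyme without inhibitor for no effect and buffer without enzyme for full effect; nearly all actives have a fitted effect of over 40% in size; top concentration of the series not given in the record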
Target sequence (P25779 123-467 limits assumed): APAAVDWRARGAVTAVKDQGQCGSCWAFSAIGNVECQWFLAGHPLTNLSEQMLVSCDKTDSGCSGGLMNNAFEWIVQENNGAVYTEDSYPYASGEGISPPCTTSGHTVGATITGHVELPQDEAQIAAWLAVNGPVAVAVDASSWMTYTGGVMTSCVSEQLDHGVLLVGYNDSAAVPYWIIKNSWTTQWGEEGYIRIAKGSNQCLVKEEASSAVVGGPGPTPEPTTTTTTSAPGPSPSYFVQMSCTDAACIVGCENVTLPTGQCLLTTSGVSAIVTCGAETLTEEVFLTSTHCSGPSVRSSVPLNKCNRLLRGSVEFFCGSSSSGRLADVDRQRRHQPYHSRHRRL
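Purified cruzain at 1.5 nM, pre-incubated 15 min with compound at room temperature in 100 mM sodium acetate pH 5.5, 5 mM DTT, 0.00005% Triton X-100. Reaction started with 2 uM Z-FR-AMC; AMC fluorescence increase over 60 s gives rate.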
NS1 inh = blocks influenza NS1 protein function. S. cerevisiae slowed by influenza A NS1, growth recovery by OD600. Potency, µM (top dose mostly 46.1 µM), for inactives: top-dose activity, positive = more growth. 270,000 compounds, 0.4% hits. AID 2326; active means well fitted rising curve with a large enough effect; inconclusive means small, poorly fitted or top-dose-only effect; inactive means no such curve, though single readings can be large or run the other way; further: nearly all actives have a fitted effect of over 50% in size
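Growth recovery, yeast-based: influenza A NS1 expressed in S. cerevisiae causes slow growth, and suppressors are detected by OD600. The parent strain without NS1 is used as positive control.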
Cruzain inh Det = blocks cruzain activity in presence of Triton detergent; P25779; purified cruzain, Z-FR-AMC fluorescence, 0.01% Triton; Potency, µM, for inactives: max response, negative = inhibition, usual class: inhibitors; 200,000 compounds, 0.43% hits; AID 1478;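 further: plate controls were neutral wells for no effect and buffer without enzyme for full effect; nearly all actives have a fitted effect of over 40% in size; top concentration of the series not given in the record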
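In this qHTS format, compounds are incubated with 1.5 nM cruzain for 15 min at room temperature before 2 uM Z-FR-AMC is added. Release of AMC is followed at 360/450 nm, and progress is taken as the 60 s fluorescence difference.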
* hit, by the source's call; & = joins results of further samples; [ ] = remark or other dose. Unless noted, the call rests on the fitted dose curve; in most records, active means well fitted curve in the direction sought with a large enough effect; inconclusive means small, poorly fitted or top-dose-only effect, or another doubt; inactive means no such curve, though single readings can be large; an effect the other way counts as inactive or inconclusive. Potency means the concentration at half of the fitted maximal effect.

`CC(C)CC1NC(=O)C(CC(C)C)N(CO)C1=O` (stereo not given) gave Lassa entry inh 11%, 2A StopGo -15%, RE007 growth inh -8% and MARV entry inh 19%.
For O=C(Nc1ccc2oc(-c3cccc(F)c3)nc2c1)c1ccccc1F the results were SARS PLP yeast 1%, Lassa entry inh 11%, 2A StopGo 2%, RE007 growth inh -19%, MARV entry inh -2%, Cruzain noTriton inconclusive, NS1 inh 3% and Cruzain inh Det 1.7%.
`CCOC(=O)Cc1csc(N/C(=N/S(=O)(=O)c2cc(Br)ccc2OCC)c2ccccc2)n1` gave SARS PLP yeast 12%, Lassa entry inh 4%, 2A StopGo 0%, RE007 growth inh 4%, MARV entry inh inconclusive, Cruzain noTriton 27%, NS1 inh 9% and Cruzain inh Det -6.4%.
COc1ccc(NC(=O)C2CCN(S(=O)(=O)c3ccc4[nH]c(=O)oc4c3)CC2)c(OC)c1 was read as SARS PLP yeast 2%, 2A StopGo -12%, RE007 growth inh -5% and NS1 inh 3%.
Cc1ccc(C)c(CN2C(=O)c3ccccc3S(=O)c3ccc(C(=O)N4CCN(c5ccccc5F)CC4)cc32)c1 (stereo not given) was read as Lassa entry inh inconclusive, 2A StopGo -5%, MARV entry inh inconclusive, Cruzain noTriton -4% and Cruzain inh Det -1.1%.
Screening O=C(O)c1oc2ccc(Br)cc2c1-n1cccc1 returned SARS PLP yeast -2%, Lassa entry inh 16%, 2A StopGo -22%, RE007 growth inh 11%, MARV entry inh -7%, Cruzain noTriton -29%, NS1 inh -1% and Cruzain inh Det -5.6%.
`Cc1cc(F)ccc1NC(=O)C1CCC(CNS(=O)(=O)c2ccc3c(c2)CCCC(=O)N3)CC1` (stereo not given) gave Lassa entry inh 19%[46.1 µM], 2A StopGo -28%, Cruzain noTriton 2% and Cruzain inh Det 0.8%.
For O=C(Nc1ccc(F)c(Cl)c1)C1CCN(c2ncccn2)CC1 the results were Lassa entry inh 3%[46.1 µM], 2A StopGo -7%, MARV entry inh 2%[46.1 µM], Cruzain noTriton -10% and Cruzain inh Det -3.7%.
COc1cc(Nc2nc3ccccc3n3nnnc23)cc(OC)c1OC was read as SARS PLP yeast -2%, 2A StopGo -2%, RE007 growth inh 7%, Cruzain noTriton -6%, NS1 inh 3% and Cruzain inh Det 1.4%.
`CCc1cc(C(=O)N(C)CC(=O)N(CC(C)C)c2c(N)n(CC(C)C)c(=O)[nH]c2=O)sc1C` gave SARS PLP yeast 6%, Lassa entry inh -2%, 2A StopGo -19%, RE007 growth inh -20%, MARV entry inh -1% and NS1 inh 5%.
CCN(CC)C(=O)C1CCCN(Cc2ccc3ccccc3c2)C1 (stereo not given) was read as SARS PLP yeast 9%, Lassa entry inh -10%[46.1 µM], 2A StopGo -10%, RE007 growth inh inconclusive, MARV entry inh inconclusive and NS1 inh 9%.
`CC1CCCN(C(=O)c2ccc(CNc3c(N4CCCCC4)c(=O)c3=O)cc2)C1` (stereo not given) gave SARS PLP yeast -2%, 2A StopGo -22%, RE007 growth inh -1%, Cruzain noTriton 1%, NS1 inh -25% and Cruzain inh Det -2.2%.
COc1ccc(-c2cc(C(=O)NCCc3ccc(OC)c(OC)c3)c3c(-c4ccc(F)cc4)[nH]nc3n2)cc1 was read as Lassa entry inh inconclusive, 2A StopGo -9%, Cruzain noTriton 8% and Cruzain inh Det 0.4%.
`Cc1ccc(S(=O)(=O)NCc2ccc(C(=O)N3CCN(Cc4ccccc4)CC3)cc2)cc1` gave SARS PLP yeast -3%, Lassa entry inh inconclusive, RE007 growth inh -9%, MARV entry inh inconclusive, Cruzain noTriton -3%, NS1 inh -7% and Cruzain inh Det -2.0%.
`O=C(OCCN1CCOCC1)c1ccccc1Cl` gave Lassa entry inh 6%[46.1 µM], 2A StopGo 43%[activator], RE007 growth inh -6% and MARV entry inh inconclusive.
`O=C(O)CC(CC(=O)Nc1ccc(N2CCOCC2)cc1)c1ccccc1` (stereo not given) gave SARS PLP yeast 1%, Lassa entry inh 13%, 2A StopGo 7%, RE007 growth inh 3%, MARV entry inh 3%[46.1 µM] and NS1 inh 7%.
`CCCn1c(=O)c2ccccc2n2c(SCc3nnc(-c4ccccc4Br)o3)nnc12` gave SARS PLP yeast -1%, Lassa entry inh inconclusive, RE007 growth inh 3%, MARV entry inh -2%&1%, Cruzain noTriton 3%, NS1 inh -13% and Cruzain inh Det -1.4%.
`O=S(=O)(Nc1nc2ccccc2nc1Cl)c1ccccc1C(F)(F)F` gave SARS PLP yeast 3%, Lassa entry inh 3%[46.1 µM], 2A StopGo 16%, RE007 growth inh 6%, MARV entry inh 18%[46.1 µM] and NS1 inh -1%.
Screening CCOC(=O)c1ccc(Nc2nc(C)cc(C)c2C#N)cc1 returned SARS PLP yeast 3%, Lassa entry inh -4%, 2A StopGo -20%, RE007 growth inh -10%, MARV entry inh 0%, Cruzain noTriton 4%, NS1 inh 2% and Cruzain inh Det -6.4%.
For COC(=O)c1sc2ncn(CC(=O)NCCc3ccc(OC)c(OC)c3)c(=O)c2c1C the results were SARS PLP yeast 1%, Lassa entry inh -1%, 2A StopGo -22%, RE007 growth inh 3%, MARV entry inh 2% and NS1 inh -1%.
`Cc1ccc(S(=O)(=O)N2CCOCC2)cc1NC(=O)COC(=O)c1ccc(Cl)nc1` gave SARS PLP yeast 3%, Lassa entry inh -4%, 2A StopGo -20%, RE007 growth inh 7% and MARV entry inh -9%[46.1 µM].
`O=C(O)C1CC=CCC1C(=O)Nc1cccc(C(=O)N2CCCCC2)c1` (stereo not given) gave SARS PLP yeast 8%, Lassa entry inh 0%, RE007 growth inh 8%, MARV entry inh 0%, Cruzain noTriton 2%, NS1 inh -2% and Cruzain inh Det 5.3%.
Screening CCOC(=O)C(NC(=O)N(C)C)(Nc1sc(C)c(CC)c1C#N)C(F)(F)F (stereo not given) returned SARS PLP yeast inconclusive, Lassa entry inh -3%, 2A StopGo 10%, RE007 growth inh -12%, MARV entry inh 9%, Cruzain noTriton -3%, NS1 inh 0% and Cruzain inh Det -0.2%.
Screening CCOC(=O)c1ccc(NC(=O)CCC(=O)NCc2ccco2)cc1 returned SARS PLP yeast 1%, Lassa entry inh 1%[46.1 µM], 2A StopGo 1%, RE007 growth inh -1%, MARV entry inh 6%[46.1 µM] and NS1 inh 7%.
Screening CC1Cc2ccccc2N1Cc1cccc(S(=O)(=O)N(C)C)c1 (stereo not given) returned SARS PLP yeast -2%, Lassa entry inh inconclusive, 2A StopGo -28%, RE007 growth inh -13%, MARV entry inh inconclusive and NS1 inh -6%.
For COC(=O)c1ccccc1NC(=O)Nc1ccc(Cl)cn1 the results were SARS PLP yeast 0%, 2A StopGo 21%, RE007 growth inh -24%, MARV entry inh 1%[46.1 µM] and NS1 inh 4%.
`COc1ccc(-n2cnnc2SCC(=O)Nc2cccc(S(N)(=O)=O)c2)cc1` gave SARS PLP yeast 4%, Lassa entry inh 14%[46.1 µM], 2A StopGo 2%, RE007 growth inh 11%, MARV entry inh 15%[46.1 µM] and NS1 inh -2%.
`Cc1c(Cl)c([N+](=O)[O-])nn1CC(=O)NCC(C)C` gave SARS PLP yeast -1%, Lassa entry inh -9%, 2A StopGo -14%, RE007 growth inh 0%, MARV entry inh 7%[46.1 µM] and NS1 inh 4%.
NC(=O)CSc1ncc2c(n1)-c1ccccc1N(Cc1ccc(F)cc1)S2(=O)=O was read as Lassa entry inh -3%[46.1 µM], 2A StopGo -6%, Cruzain noTriton 2% and Cruzain inh Det 0.8%.
Cc1sc2nc(SCC(N)=O)n(-c3ccccc3)c(=O)c2c1C was read as SARS PLP yeast 2%, Lassa entry inh -6%, 2A StopGo -18%, RE007 growth inh 8% and MARV entry inh 6%[14.2 µM].
Screening Cc1ccccc1-c1n[nH]c(=S)n1C returned SARS PLP yeast 1%, Lassa entry inh -1%, 2A StopGo -9%, RE007 growth inh 7% and MARV entry inh -3%[46.1 µM].
For COC(=O)Cc1c(C)nc2nc(NCc3ccc(Br)cc3)[nH]n2c1=O the results were Lassa entry inh 12%[46.1 µM], 2A StopGo 8%, MARV entry inh 6%[46.1 µM], Cruzain noTriton -18% and Cruzain inh Det -3.1%.
Screening COc1ccc2[nH]c(C(=O)NCCCN3CCCC3=O)c(C)c2c1 returned SARS PLP yeast -4%, Lassa entry inh inconclusive, 2A StopGo -2%, RE007 growth inh -7%, MARV entry inh 12%[46.1 µM] and NS1 inh 1%.
For CC(C)Cn1c(/C=N/Nc2nc3ccccc3[nH]2)nc2ccccc21 the results were SARS PLP yeast -88%, Lassa entry inh inconclusive, 2A StopGo 25µM*, RE007 growth inh -4%, MARV entry inh inconclusive, Cruzain noTriton -5%, NS1 inh -22% and Cruzain inh Det -4.1%.
For O=C(COC(=O)/C=C/c1cccc(C(F)(F)F)c1)NC(c1ccccc1)c1ccccc1 the results were SARS PLP yeast 8%, Lassa entry inh 0%, 2A StopGo -4%, RE007 growth inh -11%, MARV entry inh -6%, Cruzain noTriton 16µM*, NS1 inh 0% and Cruzain inh Det 0.0%.
Screening c1ccc(-c2ccccc2OCCCN2CCOCC2)cc1 returned SARS PLP yeast -2%, 2A StopGo 18%, RE007 growth inh 2% and NS1 inh 5%.
`CC1=CCC(/C=N\Nc2nnc3c(n2)[nH]c2ccccc23)CC1` (stereo not given) gave SARS PLP yeast 7%, Lassa entry inh 3%, MARV entry inh 30%, Cruzain noTriton inconclusive, NS1 inh 17% and Cruzain inh Det -0.6%.
`NC(CC(=O)OC1CCCCC1)C(=O)OC1CCCCC1` (stereo not given) gave SARS PLP yeast -1%, Lassa entry inh 18%, 2A StopGo -14%, RE007 growth inh 7%, MARV entry inh -5%, Cruzain noTriton -3%, NS1 inh 0% and Cruzain inh Det -4.6%.
